# Compound activity: PubChem, several laboratories
# RGS16-Gao HTS – modulates binding between human RGS16 and Galphao; AID 1441; hit rate 0.38% among 220,000; O15492+P09471; binding response (% of control), % at 10 µM; bead-based flow cytometry RGS16-Galphao binding, fluorescence; actives lie on both sides;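 active = below 25% or above 175%, edge rows of some plates excepted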;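 note: Galphao activated by GDP with aluminum fluoride before binding; 100% = wells without compound and 0% = beads without RGS; some results beyond the cut were filed as inactive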
# GALR2 ag – activates the human galanin receptor 2; O43603; activation, %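 (tested at 5 µM)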; hit rate 0.48% among 140,000; GALR2-expressing cells, agonist activation read-out;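 active = above mean plus 3 SD of all compounds, about 5% in these data, not always enough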;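 note: 0% = vehicle buffer wells and 100% = reference agonist at full effect; tested in CHO reporter cells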
# Insulin prom inh – TRM-6 insulin promoter activity inhibition; TRM-6 cells (human fetal islet line), insulin promoter-eGFP reporter, imaging; reporter expression induced with tamoxifen; inhibition, % at 2 µM; hit rate 0.9% among 130,000; AID 1273;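 active = inhibition above the mean plus 3 SD, with well images judged a real hit on visual review, cut at about 60% in these data, passing the limit was not always enough; inconclusive = inhibition over the cutoff but images rejected on review; inactive = inhibition not above the cutoff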
# PKD1 inh – blocks activity of human protein kinase D1; PKD1 kinase fluorescence polarization assay; hit rate 0.056% among 200,000; Q15139; inhibition, %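 (about 10 µM by stock and volumes)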;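 active = inhibition of 50% or more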;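 note: controls were vehicle for no effect and a reference inhibitor for full effect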
# Target sequence (Q15139 whole entry, looked up): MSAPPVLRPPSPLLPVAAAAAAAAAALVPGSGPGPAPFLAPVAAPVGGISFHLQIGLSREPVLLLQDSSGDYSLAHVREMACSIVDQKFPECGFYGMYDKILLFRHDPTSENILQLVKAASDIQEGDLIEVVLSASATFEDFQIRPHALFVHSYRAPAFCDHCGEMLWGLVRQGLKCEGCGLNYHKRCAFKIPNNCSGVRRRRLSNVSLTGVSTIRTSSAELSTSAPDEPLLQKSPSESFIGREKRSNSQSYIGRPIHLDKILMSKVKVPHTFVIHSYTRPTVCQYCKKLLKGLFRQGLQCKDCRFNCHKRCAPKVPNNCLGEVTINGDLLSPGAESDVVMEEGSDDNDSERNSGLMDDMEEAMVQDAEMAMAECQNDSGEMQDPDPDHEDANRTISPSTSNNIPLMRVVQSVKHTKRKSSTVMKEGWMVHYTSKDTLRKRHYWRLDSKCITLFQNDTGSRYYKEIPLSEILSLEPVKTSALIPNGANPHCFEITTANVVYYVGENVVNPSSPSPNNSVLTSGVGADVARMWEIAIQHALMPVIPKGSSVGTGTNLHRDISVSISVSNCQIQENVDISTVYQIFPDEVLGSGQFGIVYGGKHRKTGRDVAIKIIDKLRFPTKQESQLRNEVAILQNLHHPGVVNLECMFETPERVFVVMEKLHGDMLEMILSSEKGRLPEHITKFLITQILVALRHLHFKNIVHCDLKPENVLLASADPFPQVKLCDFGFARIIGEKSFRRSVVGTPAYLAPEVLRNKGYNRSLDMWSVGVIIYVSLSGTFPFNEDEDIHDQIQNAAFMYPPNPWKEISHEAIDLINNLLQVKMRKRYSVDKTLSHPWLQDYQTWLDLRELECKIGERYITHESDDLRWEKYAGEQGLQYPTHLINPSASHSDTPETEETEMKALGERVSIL
# HSV replic up – HSV replication enhancement; HSV replication augmentation in cells, fold increase; hit rate 0.005% among 220,000; maximum fold increase; AID 1956;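 active = peak rise of 1.5-fold or more in the series; inconclusive = self-fluorescent or not available for retest; tested in PC3 cells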;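 note: first round at 10 µM; read as green reporter fluorescence; hits show the peak of a series up to 25 µM; 1 = signal of infected wells without compound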
# Insulin prom inh cell count – recorded beside Insulin prom inh, whose call it bears; normalized cell count, %; measured here: cell count, toxicity; reference of the scale not given here;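 cells exposed to compound for 48 h; stained nuclei by imaging scaled within each plate; lower means fewer cells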
# HSV replic up primary fold – further read-out of HSV replic up, marked with its call; fold increase; compound at 10 µM; measured here: primary screen fold increase 10 uM; tested in PC3 cells;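 GFP signal in the first replicate; 1 = infected wells without compound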
# * = called active by the depositor; i = inactive; ? = inconclusive; . = no result given.
# Preview, 2 compounds:
SMILES,RGS16-Gao HTS,GALR2 ag,Insulin prom inh,Insulin prom inh cell count,PKD1 inh,HSV replic up,HSV replic up primary fold
Cc1nc(/N=C\N(C)C)sc1C(=O)Nc1ccccc1,-12,-2.8,-65,126,4,i,0.72
NS(=O)(=O)c1ccc(NNC(=O)c2ccccc2C(=O)O)cc1,102,.,.,.,.,i,0.96

# Results, previewed entries included:
SMILES,RGS16-Gao HTS,GALR2 ag,Insulin prom inh,Insulin prom inh cell count,PKD1 inh,HSV replic up,HSV replic up primary fold
Cc1nc(/N=C\N(C)C)sc1C(=O)Nc1ccccc1,-12,-2.8,-65,126,4,i,0.72
NS(=O)(=O)c1ccc(NNC(=O)c2ccccc2C(=O)O)cc1,102,.,.,.,.,i,0.96
O=[N+]([O-])c1cccc(NC(=S)N2CCc3ccccc3C2)c1,93,.,.,.,-3,i,0.91
Cc1ccc(-c2cc(C(=O)N/N=C/c3c(C)nn(-c4ccccc4)c3C)[nH]n2)cc1,114,0.0,-10,6,-8,.,.
COc1cccc(CC2(CO)CCCN(C/C=C/c3ccccc3OC)C2)c1 (stereo not drawn),104,.,.,.,7,i,0.8
CC(C)c1ccc2c(c1)C(c1ccc(N3CCOCC3)cc1)=NNC(c1cccs1)=N2,101,-2.2,21,117,-6,i,0.93
O=C(Nc1ccc(F)c([N+](=O)[O-])c1)C1CC(=O)N(Cc2ccccc2)C1 (stereo not drawn),103,.,-100,92,-12,i,1.1
COc1ccccc1N1CCN(C(=O)c2cc(-c3ccco3)on2)CC1,101,-0.1,.,.,-10,i,0.95
O=Cc1ccc(-c2nc3ccccc3s2)o1,107,.,.,.,2,i,1.1
CSc1ncccc1-c1nc2ccccc2[nH]1,109,-2.9,44,64,-7,i,0.94
COC(=O)[C@H](CCSC)NC(=O)NC1CC1,101,.,.,.,.,i,0.94
Cc1cccc2cc(CN(Cc3cccs3)C(=S)NCC3CCCO3)c(=O)[nH]c12 (stereo not drawn),43,0.6,-24,160,3,i,0.85
COc1ccc(CN2CCN(C(=O)c3cccnc3)CC2)cc1Br,180,-1.0,.,.,-3,i,0.87
CCN(CC)S(=O)(=O)N1CCC(C(=O)NCCC2=CCCCC2)CC1,98,.,.,.,-3,i,0.93
O=C(Oc1cccnc1)c1cc(S(=O)(=O)N2CCCCC2)ccc1Cl,103,-1.1,.,.,-1,i,0.94
Nc1ncnc(Nc2ccccn2)c1[N+](=O)[O-],99,.,47,86,9,i,1.1
COC(=O)C1=NN(c2cccc(C)c2)C2C(=O)N(c3ccccc3OC)C(=O)C12 (stereo not drawn),104,0.0,.,.,-8,i,1.1
Cc1ccc(C(C(=O)NC2CCCCC2)N(CCC(C)C)C(=O)CNC(=O)c2ccco2)o1 (stereo not drawn),67,-1.6,-3,130,-6,i,1
Cc1cc(NC(=O)CN2CCCC(C)C2)no1 (stereo not drawn),102,.,31,87,-1,i,1
CCn1cc(C(=O)C(F)(F)F)c2ccccc21,106,-3.8,-29,118,-14,i,0.79
S=C(Nc1ccc(Nc2ccccc2)cc1)NN1CCOCC1,106,.,.,.,.,i,0.97
CC(=O)c1c(C(=O)O)[nH]c(C(=O)O)c1C,97,.,.,.,6,i,0.93
FC(F)(F)c1cc(-c2ccco2)nc(N2CCN(c3ccccc3)CC2)n1,95,-1.6,-123,94,-1,i,1.1
CCCN1CNC(=S)N(Cc2ccccc2)C1,117,0.1,.,.,-8,i,0.97
COc1ccccc1-n1cnc2cc(C(=O)NCCCN3CCOCC3)ccc21,105,-2.0,.,.,-1,i,0.97
COCCCNC(=O)CNC(=S)N(Cc1ccccc1)Cc1cccnc1,98,.,15,117,-4,i,0.92
Cc1ccc2c(CC(=O)O)coc2c1,106,-0.6,3,62,-10,i,0.9
CCC1(C)N(O)C(C)(C)C(c2ccc(OC)cc2)=[N+]1[O-] (stereo not drawn),124,-1.2,29,78,12,i,0.95
CCN(CC(=O)Nc1ccccc1OC)CC(=O)Nc1ccccc1C(F)(F)F,100,.,-67,117,-1,i,0.92
O=C(CCNc1cc(Cl)cc(Cl)c1)c1ccco1,96,-2.9,20,166,-8,i,0.91
COc1ccc(N2C(=O)C3CCCN3C2=O)cc1 (stereo not drawn),104,-1.0,50,158,-4,i,0.91
COc1ccc(-c2noc(-c3ccoc3C)n2)cc1,106,.,.,.,-6,i,0.98
CCOC(=O)CC(=O)CSc1nnc2sc3ccccc3n12,98,-1.2,.,.,2,i,1.2
COC(=O)c1sc(NC(=O)c2c(OC)cccc2OC)c(C#N)c1C,107,.,.,.,1,i,0.95
S=C(NCCN1CCOCC1)Nc1ccc(-c2nc3ccccc3[nH]2)cc1,98,.,.,.,-1,i,0.91
Brc1ccc(-c2ccc(/C=N/Nc3nc(N4CCOCC4)nc(N4CCOCC4)n3)o2)cc1,74,.,-67,110,-4,i,0.76
Cc1ccccc1-c1n[nH]c(=S)o1,101,-0.4,.,.,-2,i,0.85
CCOc1ccc(NS(=O)(=O)CC23CCC(CC2=O)C3(C)C)cc1 (stereo not drawn),100,-2.9,-5,42,9,i,0.92
CCOC(=O)c1c(NC(=O)COC(=O)c2cc(OC)c(OC)cc2[N+](=O)[O-])sc(C)c1C,106,0.9,.,.,-2,i,0.84
S=c1[nH]nc(/C=C/c2ccccc2)o1,98,.,-15,83,-7,i,0.87
COc1ccc(N2CCN(C(=O)CC(NC(N)=O)c3cccc(Oc4ccccc4)c3)CC2)cc1 (stereo not drawn),104,-1.2,.,.,-7,i,0.82
Cc1cc(C)n2nc(CC#N)c(C#N)c2n1,103,.,4,173,1,i,1
Cn1nccc1C(=O)N1CCN(c2ncccn2)CC1,99,.,.,.,9,i,0.95
COc1cccc(CSc2nc3sc(C)c(C)c3c(=O)n2Cc2ccco2)c1,88,-0.4,-23,162,-8,i,1
O=C(Oc1cccc2ccccc12)c1cc(Cl)nc2ccccc12,102,0.1,.,.,5,i,1.3
CC(=O)Nc1nc(C)c(-c2csc(Nc3ccc(O)cc3)n2)s1,109,-1.5,3,137,4,i,0.72
C=CCn1c(Cc2nc3ccc(Cl)cc3[nH]2)n[nH]c1=S,102,-2.5,.,.,-7,i,0.99
COC(=O)c1ccc(S(=O)(=O)N2CCCN(Cc3cccc(Br)c3F)CC2)n1C,100,.,.,.,.,i,1.1
O=S(=O)(NCC1NCCc2ccccc21)c1ccccc1 (stereo not drawn),107,.,9,140,-2,i,0.93
CCOc1ccc(S(=O)(=O)Nc2cc(Cl)ccc2O)cc1,102,-0.8,-70,70,-6,i,0.86
N#CCC(=O)Nc1ccc(C(=O)NCC(c2ccco2)N2CCCCC2)cc1 (stereo not drawn),96,.,.,.,-3,i,1.3
CC(C)(C)C(=O)N1CCN(c2ccc([N+](=O)[O-])cc2-n2cccc2)CC1,101,.,.,.,.,i,0.97
CSc1nc(-c2ccco2)nn1C(=O)Cc1ccccc1,100,-2.0,-318,41,2,i,0.84
Nc1ccc2nc(SCC(=O)N3CCN(c4ccccc4)CC3)sc2c1,95,.,.,.,.,i,0.95
O=C(NCc1ccc(-c2csnn2)cc1)c1cc(Cl)cc(Cl)c1,100,.,.,.,.,i,0.95
COc1ccc(N(CC(=O)NCc2ccco2)S(=O)(=O)c2ccc(C)cc2)cc1,105,.,.,.,0,i,1
C/C(=N\NC(=O)c1ccc(CSc2cccc3cccnc23)cc1)C1CCCCC1,99,-0.1,-33,118,-5,i,0.95
CC(=O)NS(=O)(=O)c1ccc(N2C(=O)c3ccccc3C2=O)cc1,104,.,.,.,-2,i,1
CCCCc1[nH]nc2c1C1(C(=O)N(CC)c3ccccc31)C(C#N)=C(N)O2 (stereo not drawn),102,-2.6,.,.,2,i,0.97
CC(=O)Nc1ccc(N2CCCCC2)cc1,100,-2.3,-6,122,-4,.,.
# (next part)
SMILES,RGS16-Gao HTS,GALR2 ag,Insulin prom inh,Insulin prom inh cell count,PKD1 inh,HSV replic up,HSV replic up primary fold
N/C(=N\OC(=O)C1CC1)c1ccc([N+](=O)[O-])s1,94,.,.,.,.,i,1
CCOc1ccccc1N(CC(=O)O)S(=O)(=O)c1ccc(C)cc1,99,-2.8,-311,59,6,i,1
CCOn1c(=O)c(-c2cccc3ccccc23)[n+]([O-])c2ccccc21,101,.,.,.,-3,i,0.94
Cc1nn(C)c(Oc2ccccc2)c1CCNS(=O)(=O)c1ccc(Cl)cc1,144,-1.1,.,.,1,i,1
CNc1nc(Sc2cccc(C(F)(F)F)c2)cc(C(F)(F)F)n1,102,-2.1,3,136,-2,i,0.69
COc1cc2c3nnc(-c4ccc(F)cc4)c-3cn(Cc3cccc(C)c3)c2cc1OC,106,2.8,.,.,2,i,0.96
CCOC(=O)C(=O)N/N=C(/c1ccccc1)c1ccc(OC)cc1,106,.,.,.,.,i,1.1
C=CCn1c(SCC(=O)NCc2ccco2)nc2sc3c(c2c1=O)CCC3,101,-1.0,.,.,-4,i,1
Cc1nc2cccc(C(=O)NCc3ccccc3)c2o1,102,-1.9,-7,115,-1,i,1.1
CCOc1ccc(OC(=O)C(CCS(C)(=O)=O)N2C(=O)c3ccccc3C2=O)cc1 (stereo not drawn),99,-1.1,22,87,-3,i,0.93
Cc1cccc(N(C(=O)c2csnn2)C(C(=O)NC(C)(C)C)c2cccnc2)c1 (stereo not drawn),102,.,-4,129,-3,i,0.93
COc1ccc(C2C=C(c3ccc(Br)s3)Nc3ncnn32)cc1OC (stereo not drawn),99,-1.2,.,.,-4,?,.
CCOC(=O)c1sc(NC(=O)c2sccc2C)cc1C,356,-1.1,13,101,-1,i,0.82
CC(C)=CCN1CCN(Cc2cccn2-c2nccs2)CC1CCO (stereo not drawn),106,.,.,.,3,i,0.89
COCC(C)NC(=S)NC(=O)c1cc(S(=O)(=O)N2CCOCC2)ccc1C (stereo not drawn),101,.,.,.,-1,i,1
Cc1nn2c3ccccc3n(C)c2nc1=O,85,1.1,-138,121,-1,i,0.95
Cn1c(SCC(=O)N2c3ccccc3Sc3ccc(Cl)cc32)nnc1-c1ccco1,103,-1.3,0,104,-8,i,1
CCc1ccccc1NC(=O)C1CCN(C(=O)c2ccc([N+](=O)[O-])cc2)CC1,100,.,.,.,-4,i,1.2
Cc1ccc2c(c1)N(Cc1ccc3c(c1)OCO3)C(=O)C(C)O2 (stereo not drawn),99,-0.7,31,135,6,i,0.91
Cc1[nH]c2ccccc2c1C(=O)CSc1ccc(F)cc1,105,-1.6,-47,138,0,i,0.87

# Part of the list above in order of heavy-atom count, lowest first.
SMILES,RGS16-Gao HTS,GALR2 ag,Insulin prom inh,Insulin prom inh cell count,PKD1 inh,HSV replic up,HSV replic up primary fold
CCOC(=O)c1sc(NC(=O)c2sccc2C)cc1C,356,-1.1,13,101,-1,i,0.82
COCC(C)NC(=S)NC(=O)c1cc(S(=O)(=O)N2CCOCC2)ccc1C (stereo not drawn),101,.,.,.,-1,i,1
Cc1cccc(N(C(=O)c2csnn2)C(C(=O)NC(C)(C)C)c2cccnc2)c1 (stereo not drawn),102,.,-4,129,-3,i,0.93
CCOc1ccc(OC(=O)C(CCS(C)(=O)=O)N2C(=O)c3ccccc3C2=O)cc1 (stereo not drawn),99,-1.1,22,87,-3,i,0.93

# Later entries:
SMILES,RGS16-Gao HTS,GALR2 ag,Insulin prom inh,Insulin prom inh cell count,PKD1 inh,HSV replic up,HSV replic up primary fold
CC(C)Cc1cc(CN2CCCC(CO)(Cc3cccc(Cl)c3)C2)[nH]n1 (stereo not drawn),100,.,.,.,-5,i,0.91
COC(=O)c1ccccc1NC(=O)COC(=O)/C=C/c1ccco1,99,.,-18,49,-5,i,0.98
Cc1ccc(-c2nnc(SCC(=O)N3CCCc4ccccc43)n2N)cc1,98,-1.9,9,142,-1,i,0.9
O=C(COC(=O)c1ccc(F)cc1)NCCc1ccc(F)cc1,109,.,.,.,-4,i,1
Cc1ccc(S(=O)(=O)N(C)C)cc1NC(=O)CN1C(=O)NC(Cc2c[nH]c3ccccc23)C1=O (stereo not drawn),112,.,.,.,.,i,1.1
CC1CCCC(C)N1C(=O)Nc1cccc(Cl)c1 (stereo not drawn),101,-0.4,.,.,3,i,0.87
COc1ccc(S(=O)(=O)N(C)C)cc1NCC(=O)Nc1ccc(Br)cc1F,107,0.6,-26,159,-11,i,0.96
CCOc1ccc(NC(=O)c2cccnc2Cl)c([N+](=O)[O-])c1,107,0.4,.,.,-8,i,1
Cc1ccc(C(c2nnnn2CC2CCCO2)N2CCN(C)CC2)cc1 (stereo not drawn),97,.,.,.,-3,i,1.1
O=C(Sc1ccc(Cl)cc1)c1cccc(Cn2cc(C(F)(F)F)ccc2=O)c1,100,.,.,.,.,i,1.1
O=C(Nc1ccc(F)cc1)Nc1csc2ccccc12,98,.,.,.,.,i,0.91
COc1cc(CN2CCN(C(=O)CC(C)C)CC2)cc(OC)c1O,107,-1.6,26,43,-17,i,0.95
